# Source: PubChem (several laboratories)
# HIV Env fusion – blocks HIV Env-driven cell-cell fusion; HeLa-JRFL Env/CEM21 cell fusion, luciferase; inhibition, % at 12.3 µM; actives 1.1% (n = 360,000); AID 651610;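 active = mean replicate inhibition score of at least 50 and every replicate individually at or above 50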;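 note: 0% = plate neutral controls and 100% = maraviroc near 300 nM; one replicate is shown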
# MT1-MMP act inh – MT1-MMP (human) activation inhibition. GFP/RFP ratio change, % at 20 µM. AID 651647. P50281. actives 0.061% (n = 360,000). HT1080 RFP-PRO-GFP cells, GFP/RFP ratio fluorescence, overnight; percent of plate control window, DMSO zero;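 active = GFP/RFP ratio change of at least 30% with cell ATP level not reduced by more than half and red fluorescence within 50% of control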; note: strong numbers were not always called active
#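 Test system: HT1080 RFP-PRO-GFP cells; Benchmarks: DMSO and RFP-L50D-GFP cell wells; Timing: cells overnight before dosing, compound overnight, 37 °C, 5% CO2; Compound: one 20 µM compound dose with 1% DMSO; Read-out: GFP/RFP fluorescence ratio.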
# MT1-MMP act inh RFP – second read-out of MT1-MMP act inh, no call of its own (marks repeat the call); RFP signal change, %; measured here: RFP expression control read;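 0 = vehicle wells; hits needed this value within 50% of zero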
# * marks the source's active call; other numbers are inactive results. Only part of the results is shown; count on the stated rates, not on these rows.
SMILES,HIV Env fusion,MT1-MMP act inh,MT1-MMP act inh RFP
COCc1c(C(=O)OCc2nnc(-c3ccc([N+](=O)[O-])cc3)o2)oc2ccccc12,-13,-1,0
Cc1cccc(COC[C@H](Cc2ccccc2)N2CCN(C(=O)c3ccc(Cl)c(Cl)c3)CCC2=O)c1,83*,-3,-7
O=C(CSc1c2c(nc3ccc(Cl)cc13)CCCC2)N1CCN(C(=O)c2ccco2)CC1,-16,-21,-34
COc1ccc(-c2oc3cc(O)c(OC)c(O)c3c(=O)c2OC)cc1O,-37,30,3
COCCCNC(=O)c1cc(Cc2ccccc2)sc1N,22,-5,-3
O=C(NCc1ccncc1)[C@@H]1CCCN1C(=O)[C@H]1CCCN1C(=O)c1cccs1,-6,1,3
Cc1ccc(S(=O)(=O)Nc2ccccc2N=Cc2c(F)c(F)c(F)c(F)c2F)cc1,-83,1,-1
COc1cc(C=C(C#N)C(=O)c2ccccc2)cc(OC)c1OC,-24,-1,4
Cc1ccc(Cn2cc(CN(C)C3CN(Cc4cn(Cc5ccc(C)cc5)nn4)S(=O)(=O)C3)nn2)cc1 (stereo not drawn),-9,6,-3
CS(=O)(=O)c1ccc2nc(NC(=O)CCNC(=O)c3ccc(Cl)cc3)sc2c1,-29,1,-1
O=C1C=CC(=O)c2c(O)c(N3CCN(CCOCCO)CC3)c(Br)c(O)c21,61*,-13,26
CCOC(=O)[C@]12CCCC=C1N(Cc1ccco1)C(=O)[C@H](CC(=O)NCC13CC4CC(CC(C4)C1)C3)C2,15,-10,-18
O=C(NC1CCCC1)C(C1CC1)n1c(-c2ccncc2)nc2ccccc21 (stereo not drawn),5,1,6
O=C(NCc1ccccc1)C(c1ccccc1)n1c(=O)c(-c2cc3ccccc3[nH]2)nc2ccccc21 (stereo not drawn),38,-8,-4
O=C1O[C@@H](c2ccccc2)C[C@@H](O)C(=O)CCCCc2ccccc21,-3,4,5
O=S1(=O)N[C@@H](Cc2ccccc2)COc2cc(N3CCC[C@@H]3CO)ccc21,-19,3,-10
CCOC(=O)N1Cc2cc3ccccc3nc2C1,-19,2,2
CCCCn1nnnc1C1(C)CCC(=O)N1c1ccc(N2CCOCC2)cc1 (stereo not drawn),-11,6,1
COc1ccc2c(c1)C(CC(C)=O)N(c1ccc(-c3cccnc3)cc1)C(c1ccsc1)=C2 (stereo not drawn),-85,-2,-6
COC(=O)C1=CN(c2ccc3c(c2)OCO3)C(N)=C(C#N)C1c1cccc(F)c1 (stereo not drawn),-14,2,-7
Cc1cc2nc(NC(=O)C3(C)CCN3C(=O)C(C)C)[nH]c2cc1C (stereo not drawn),-22,-1,3
COc1ccc(C(C(=O)Nc2c(C)cccc2C)N2CCN(c3ccc(C)cc3)CC2)cc1 (stereo not drawn),-48,-1,-11
CCCCNC(=O)C1C(c2ccccc2)=Nc2ccccc2N1C(=O)c1ccc2c(c1)OCO2 (stereo not drawn),-13,-5,-2
COC(=O)C[C@H]1N(S(=O)(=O)c2ccc(C)cc2)C(C(C)C)CC1(C(=O)OC)C(=O)OC (stereo partly drawn),22,0,3
COC(=O)c1ccc2nc(-c3ccccc3)c(Cc3cccc(F)c3)n2c1,-7,-8,-8

# Next section.
SMILES,HIV Env fusion,MT1-MMP act inh,MT1-MMP act inh RFP
CCCCCCCCN1C(=O)[C@H](CC(=O)NCC23CC4CC(CC(C4)C2)C3)C[C@@]2(C(=O)OCC)CCC=C12,24,-19,-20
COC(=O)C1(C(=O)OC)C/C=C\CN(S(=O)(=O)c2ccccc2[N+](=O)[O-])CCC1,10,0,3
O=C1c2ccccc2C(c2nnnn2Cc2ccccc2)N1Cc1ccco1 (stereo not drawn),12,4,7
CN1CCC(N2CCN(C3CN(Cc4cn(Cc5ccc(C(F)(F)F)cc5)nn4)S(=O)(=O)C3)CC2)CC1 (stereo not drawn),-18,6,6
O=C1C(=O)c2cccnc2-c2ncccc21,60*,-15,-27
Cc1cc(F)ccc1C(O)c1ncc(-c2ccc3ccccc3c2)[nH]1 (stereo not drawn),6,-1,-1
CCOC(=O)c1[nH]c(=S)n(Cc2ccccc2)c1C(=O)OCC,-3,0,7
Cc1cnc(C(=O)Nc2c(-c3ccccc3)[nH][nH]c2=O)cn1,-30,4,7
COc1cccc(-c2ncn(CCc3ccccc3OC)c2C(C)C)c1,-14,-2,-27
Cc1cccc(C)c1NC(=O)C1c2ccccc2OCC(=O)N1Cc1ccc2c(c1)OCO2 (stereo not drawn),-14,3,-1
O=C1NC[C@H](CCCCN2C[C@H](Cc3ccc(O)cc3)N(CCc3ccc(O)cc3)C(=O)C2=O)N(Cc2ccccc2)C1=O,-14,-4,1
Nc1ccccc1C(=O)NN=Cc1cccnc1,-28,3,6
CN(C)c1ccc(C=NNC(=O)c2cccnc2)cc1,-37,-1,-3
O=C(NCCN1CCC(n2c(=O)[nH]c3ccccc32)CC1)c1cccc(F)c1,-1,5,-2
CCCc1c(Cc2cccc(F)c2)ncn1Cc1cccc(-c2ccccc2)c1,25,-5,-23
O=C1C(=O)c2c(ccc3ccccc23)-c2ccccc21,-15,1,-15
CCOC(=O)[C@]12CCCC=C1N(Cc1ccc(Cl)cc1Cl)C(=O)[C@H](CC(=O)NCC13CC4CC(CC(C4)C1)C3)C2,3,-19,-17
CC(=O)C[C@@H]1SC[C@H](c2ccccc2)N1S(=O)(=O)c1ccc(C)cc1,-10,4,2
O=C1NC[C@@H](CCCCN2C[C@H](Cc3ccc(O)cc3)N(Cc3ccccc3)C(=O)C2=O)N(Cc2ccccc2)C1=O,-73,2,8
CN(Cc1ccc(Cl)c(Cl)c1)C(C(=O)NCc1ccccc1)c1ccc(C(F)(F)F)cc1 (stereo not drawn),21,-9,-37
CSc1c2c([nH]c(=O)c1C#N)-c1ccccc1CC2,4,3,-1
O=C1NC[C@H](CC2CCCCC2)N(CCC23CC4CC(CC(C4)C2)C3)C1=O,32,7,1
O=S(=O)(/C=C/C=C/S(=O)(=O)c1ccccc1)c1ccccc1,-195,-2,-31
COC(=O)[C@@]12C[C@@H](CC(=O)NCc3ccc(OC)c(OC)c3)C(=O)N(Cc3ccccc3)C1=CCC(C)(C)C2,-13,-1,-7
COc1cccc(NC(=O)C2(C)CCN2Cc2ccc(-c3ccccc3)o2)c1 (stereo not drawn),12,8,1

# Ordered by molar mass (rising): part of the list above
SMILES,HIV Env fusion,MT1-MMP act inh,MT1-MMP act inh RFP
O=C1C(=O)c2cccnc2-c2ncccc21,60*,-15,-27
CCOC(=O)N1Cc2cc3ccccc3nc2C1,-19,2,2
Cc1cnc(C(=O)Nc2c(-c3ccccc3)[nH][nH]c2=O)cn1,-30,4,7
Cc1cc2nc(NC(=O)C3(C)CCN3C(=O)C(C)C)[nH]c2cc1C (stereo not drawn),-22,-1,3
Cc1cc(F)ccc1C(O)c1ncc(-c2ccc3ccccc3c2)[nH]1 (stereo not drawn),6,-1,-1
CCOC(=O)c1[nH]c(=S)n(Cc2ccccc2)c1C(=O)OCC,-3,0,7
O=C1O[C@@H](c2ccccc2)C[C@@H](O)C(=O)CCCCc2ccccc21,-3,4,5
COc1ccc(-c2oc3cc(O)c(OC)c(O)c3c(=O)c2OC)cc1O,-37,30,3
O=C1c2ccccc2C(c2nnnn2Cc2ccccc2)N1Cc1ccco1 (stereo not drawn),12,4,7
CC(=O)C[C@@H]1SC[C@H](c2ccccc2)N1S(=O)(=O)c1ccc(C)cc1,-10,4,2
O=C(NCCN1CCC(n2c(=O)[nH]c3ccccc32)CC1)c1cccc(F)c1,-1,5,-2
CCCc1c(Cc2cccc(F)c2)ncn1Cc1cccc(-c2ccccc2)c1,25,-5,-23
COC(=O)C1=CN(c2ccc3c(c2)OCO3)C(N)=C(C#N)C1c1cccc(F)c1 (stereo not drawn),-14,2,-7
COCc1c(C(=O)OCc2nnc(-c3ccc([N+](=O)[O-])cc3)o2)oc2ccccc12,-13,-1,0
O=C(NCc1ccncc1)[C@@H]1CCCN1C(=O)[C@H]1CCCN1C(=O)c1cccs1,-6,1,3
O=C1C=CC(=O)c2c(O)c(N3CCN(CCOCCO)CC3)c(Br)c(O)c21,61*,-13,26
COc1ccc(C(C(=O)Nc2c(C)cccc2C)N2CCN(c3ccc(C)cc3)CC2)cc1 (stereo not drawn),-48,-1,-11
COC(=O)C[C@H]1N(S(=O)(=O)c2ccc(C)cc2)C(C(C)C)CC1(C(=O)OC)C(=O)OC (stereo partly drawn),22,0,3
O=C(CSc1c2c(nc3ccc(Cl)cc13)CCCC2)N1CCN(C(=O)c2ccco2)CC1,-16,-21,-34
CN(Cc1ccc(Cl)c(Cl)c1)C(C(=O)NCc1ccccc1)c1ccc(C(F)(F)F)cc1 (stereo not drawn),21,-9,-37
CN1CCC(N2CCN(C3CN(Cc4cn(Cc5ccc(C(F)(F)F)cc5)nn4)S(=O)(=O)C3)CC2)CC1 (stereo not drawn),-18,6,6
O=C1NC[C@@H](CCCCN2C[C@H](Cc3ccc(O)cc3)N(Cc3ccccc3)C(=O)C2=O)N(Cc2ccccc2)C1=O,-73,2,8
CCOC(=O)[C@]12CCCC=C1N(Cc1ccc(Cl)cc1Cl)C(=O)[C@H](CC(=O)NCC13CC4CC(CC(C4)C1)C3)C2,3,-19,-17

# (further entries)
SMILES,HIV Env fusion,MT1-MMP act inh,MT1-MMP act inh RFP
O=C(NCc1ccccc1)C(C1CC1)n1c(-c2cccs2)nc2ccccc21 (stereo not drawn),12,1,2
CCOC(=O)[C@]12CCC=C1N(Cc1ccc3c(c1)OCO3)C(=O)[C@H](CC(=O)N1CCCCC1)C2,22,0,1
CCC(=O)c1ccc(OCC(=O)OCC(=O)N(CCC#N)c2ccc3c(c2)OCCO3)cc1,-7,3,2
CC1=C(C(=O)N2CCCCCC2)CC(CC(=O)NCC2CCCCC2)C(=O)N1CCCN1CCCC1=O (stereo not drawn),0,11,4
O=C(C(=O)N1CCN(C(=O)OCc2ccccc2)CC1)c1cccs1,-31,2,3
O=C1C=CC(=O)C(CNc2ccc(C(=O)OCc3ccccc3)cc2)=C1,47,-33,-29
CC(C)(COC(=O)C(c1ccccc1)c1ccccc1)CN1CCOCC1,80*,4,-3
CCCC(=O)NC1CCc2cc(OC)c(OC)c(OC)c2-c2ccc(OC)c(=O)cc21 (stereo not drawn),-170,29,14
Cc1cc(Cl)c2oc(C(=O)N3CCN(c4cnccn4)CC3)c(C)c2c1,-33,0,-3
CCCCn1nnnc1C1(C)CCC(=O)N1CCOc1ccccc1 (stereo not drawn),17,4,6
CN(C)c1ccc(C=c2c3ccccc3n3c2c2c([n+]3C)CCCC2)cc1,-3,82*,5.1*
O=C(OCc1cc([N+](=O)[O-])cc2c1OCOC2)c1cccnc1SC(F)F,13,-9,0
CCCS(=O)(=O)NC(=O)C1(C)CCN1C(=O)Cc1ccc(Cl)cc1Cl (stereo not drawn),-4,-2,2
O=S1(=O)CC(N2CCN(CCO)CC2)CN1Cc1cn(Cc2ccc(Cl)cc2)nn1 (stereo not drawn),36,6,8
N=C(N)SCc1ccc(Cl)c2ccccc12,1,1,-9
S=C(c1cccs1)N1CCN(c2ccccc2)CC1,-15,4,4
Cc1ccc(S(=O)(=O)N2[C@H](CC(=O)c3ccc(F)cc3)OC[C@@H]2C)cc1,-15,3,-7
Cc1cc2nc(-c3ccccc3)c(Cc3ccsc3)n2c(C)c1Br,-29,-2,-5
O=C(NCCN1CCC(n2c(=O)[nH]c3ccccc32)CC1)c1ccc(F)cc1F,10,3,0
CCOC(=O)[C@]12CCCC=C1N(CCc1ccc(OC)c(OC)c1)C(=O)[C@H](CC(=O)N1CCCCC1)C2,18,7,4
COc1ccc(Cc2c(C3CCCCC3)nc3c(Cl)cc(C(F)(F)F)cn23)c(C)c1,-4,1,0
Cc1ccc2[nH]c(O)c(N=Nc3ccccc3[N+](=O)[O-])c2c1,-43,9,-1
C=CCn1c(=O)/c(=C/c2ccc(Cl)cc2)s/c1=C(\C#N)c1nnc2n1CCCCC2,-1,3,-5
CC(C)[Si]1(C(C)C)OCC2OC(n3cnc4c(N)ncnc43)C(N)C2O[Si](C(C)C)(C(C)C)O1 (stereo not drawn),-52,-4,-13
O=C(c1cc2c(c(-c3cccc(-c4ccncc4)c3)n1)[C@H](CCO)N(C(=O)c1ccc3c(c1)OCO3)C2)N1CCOCC1,4,1,2

# Complete entries from above.
# Cc1cc2nc(-c3ccccc3)c(Cc3ccsc3)n2c(C)c1Br as listed: HIV Env fusion = -29; MT1-MMP act inh = -2; MT1-MMP act inh RFP = -5
# COc1ccc(Cc2c(C3CCCCC3)nc3c(Cl)cc(C(F)(F)F)cn23)c(C)c1 as listed: HIV Env fusion = -4; MT1-MMP act inh = 1; MT1-MMP act inh RFP = 0
